Screening data from PubChem.
BasE inh = blocks the Acinetobacter baumannii siderophore enzyme BasE; purified BasE, fluorescence polarization binding displacement; inhibition, % (test concentration not listed); 84,000 compounds, 0.1% hits; AID 485350;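 active = both replicates above 25% with normal brightness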;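 note: 0% = negative plate control signal and 100% = positive plate control signal; stock transfer was 100 nL into about 30 µL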
LANA-nucl inh = inhibitors of KSHV LANA binding to nucleosomes; z-score (no concentration beside the values); FITC-LANA1-23 / chicken nucleosome fluorescence polarization; stronger effect = lower value; 51,000 compounds, 0.3% hits;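 active = both repeat wells score below -2 in polarization z-score versus plate sample wells, excluding overly bright wells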;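 note: 100 nL library stock added to about 30 µL; numbers are from one replicate; some results filed as inactive read as strong as hits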
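Material: Purified chicken nucleosomes with FITC-labelled LANA N-terminal peptide (1-23) | Reagent: 50 nM FITC-LANA1-23 probe | Medium: TEN-BT buffer, pH 7.5 | Times: 10–45 min incubation at room temperature | Detection: Fluorescence polarization | Replication: Duplicates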
The depositor's hits bear a star; nt = not tested or not shown; & = joins results of further samples. A portion of the library; rates above refer to the full screens.

SMILES | BasE inh | LANA-nucl inh
CC1=NN(c2ccccc2)C(=O)/C1=C/c1ccc(-c2ccccc2)o1 | -0.2 | -0.86
COC(=O)c1ccccc1-c1ccc(/C=C(\C#N)C(=O)NCc2ccco2)o1 | 1.6 | 0.012
CCCCc1ccc(NC(=O)N=S2CCN(C(=O)c3ccc(Cl)cc3)CC2)cc1 | 0.8 | nt
Fc1ccccc1NCc1nnc2n1CCCCC2 | 0.8 | -1.07
CC(C)(C(=O)O)c1ccc(C(O)CCCN2CCC(C(O)(c3ccccc3)c3ccccc3)CC2)cc1 (stereo not given) | nt | 0.959
Cn1c2c(c(=O)n(C)c1=O)C(c1ccc(Cl)cc1Cl)C(C#N)=C(N)N2 (stereo not given) | -1.5 | -1.08
COc1ccc(-c2cc(C)no2)cc1S(=O)(=O)N1CC(=O)Nc2ccccc21 | -5.6 | nt
Cc1cccn2c(=O)nc(SCC(=O)Nc3ccccc3)nc12 | 1.1 | -0.811
CC(C)CC(=O)Nc1ccc(Cl)cn1 | 1.3 | -1.19
N#Cc1ccc(-c2c(-n3cccc3)oc(-c3cccs3)c2C#N)cc1 | -3.8 | nt

Gathered by group, those above containing a furan ring, fused or not.
SMILES | BasE inh | LANA-nucl inh
CC1=NN(c2ccccc2)C(=O)/C1=C/c1ccc(-c2ccccc2)o1 | -0.2 | -0.86
COC(=O)c1ccccc1-c1ccc(/C=C(\C#N)C(=O)NCc2ccco2)o1 | 1.6 | 0.012
N#Cc1ccc(-c2c(-n3cccc3)oc(-c3cccs3)c2C#N)cc1 | -3.8 | nt

The list continues.
SMILES | BasE inh | LANA-nucl inh
O=C1CSCN1c1ccc(Cl)cc1 | nt | 0.349
CC(=O)Nc1ccc(C(=O)N2CCOCC2)cc1 | 3.1 | -0.022
O=C(c1ccco1)N1CCN(Cc2ccc3c(c2)OCO3)CC1 | 0.8 | nt
O=c1oc2cc(O)ccc2c2c1CCCCC2 | 3.2 | nt
COc1cc(-c2nnc(CN3C(=O)C4CC=CCC4C3=O)o2)cc(OC)c1OC (stereo not given) | -1.5 | nt
CC1CCN(C(c2ccc(F)cc2)c2sc3ncnn3c2O)CC1 (stereo not given) | 1.3 | -0.911
O=C(Cn1cncn1)N/N=C/c1ccccc1OC(F)F | 0.7 | nt
O=C(NC(=O)N1CCCCC1)c1ccc(-c2csnn2)cc1 | -0.6 | nt
CO[C@H]1C=CO[C@@]2(C)Oc3c(C)c(O)c4c(O)c(c(C=NN5CCN(C6CCCC6)CC5)c(O)c4c3C2=O)NC(=O)C(C)=CC=C[C@H](C)[C@H](O)[C@@H](C)[C@@H](O)[C@@H](C)[C@H](OC(C)=O)[C@@H]1C | nt | -0.317
CCCCCS(=O)(=O)N1C(=O)CSC1=Nc1ccccc1 | 1.9 | 0.687
CNS(=O)(=O)c1ccc(C(=O)NCC(=O)O)cc1 | 9.3 | nt
CCN(CC)S(=O)(=O)c1ccc(-n2nnc(-c3ccc(C)cc3)n2)nc1 | 2.6 | nt
Cc1cccc(N2CC(C(=O)NC3CCCCCC3)CC2=O)c1C (stereo not given) | -0.4 | nt
O=C(N=Nc1c(O)[nH]c2ccccc12)c1cccc(Br)c1 | -1.0 | 0.192
COc1cc2nc(C3CCC3)n(NC(=O)c3ccco3)c(=O)c2cc1OC | -0.7 | -0.507
CCc1nc2cc(Cl)c(Cl)cc2[nH]1 | 3.1 | 0.555
O=C(CCc1nnc2ccc(N3CCC4(CC3)OCCO4)nn12)Nc1ccc2c(c1)OCO2 | -0.2 | -0.643
N#Cc1cccn1Cc1ccccc1N | nt | -1.26
COC(=O)c1ccsc1NC(=O)c1ccsc1NC(=O)c1cccnc1 | 1.1 | 1.59
N#CCNC(=O)COc1ccc(Cl)cc1 | 2.5 | 0.518

Four compounds out of the list above, arranged by their value in LANA-nucl inh, highest first:
molecule	LANA-nucl inh
CCc1nc2cc(Cl)c(Cl)cc2[nH]1	0.555
O=C(N=Nc1c(O)[nH]c2ccccc12)c1cccc(Br)c1	0.192
COc1cc2nc(C3CCC3)n(NC(=O)c3ccco3)c(=O)c2cc1OC	-0.507
N#Cc1cccn1Cc1ccccc1N	-1.26

More entries
SMILES | BasE inh | LANA-nucl inh
O=C(Nc1ccc2c(c1)OCC(=O)N2Cc1ccccc1F)NC1CCCCC1 | 3.4 | 0.123
CC(C)NC(=O)NC(=O)CN1c2cccc3cccc(c23)S1(=O)=O | 7.6 | nt
Cc1sc2ncn(CC(=O)NCc3ccccn3)c(=O)c2c1S(=O)(=O)N1CCN(c2ncccn2)CC1 | -7.0 | 0.178
Cc1nnc(NC(=O)C2CCN(S(=O)(=O)c3ccc4c(c3)CCC4)CC2)o1 | -1.5 | nt
S=C(NC(Cc1ccccc1)c1ccccc1)NC1CC2C=CC1C2 (stereo not given) | -0.2 | nt
O=C(C1CCCN(S(=O)(=O)c2ccccc2)C1)N1CCCc2ccccc21 (stereo not given) | 1.4 | -0.347
CN1CC2(C)CN(C(=O)c3ccccc3Cl)CC(C)(C1)C2 | 2.2 | -0.627
CC(CS(=O)(=O)c1ccc2c(c1)NC(=O)C(C)S2)C(=O)N1CCc2ccccc21 (stereo not given) | -1.6 | nt
O=C(/C=C1/Sc2ccccc2N(Cc2ccccc2F)C1=O)N1CCCC1 | 1.8 | 0.502
Cc1cn2c(=O)c(C(=O)NCC3CCCC(CNC(=O)c4cnc5sc(C)cn5c4=O)C3)cnc2s1 (stereo not given) | 2.6 | 0.752
CC1(C)CC(=O)C2=C(C1)OC(c1cccs1)C(C#N)=C2N (stereo not given) | 1.0 | nt
Cc1cnc(C(=O)NCC23CC4CC(CC(C4)C2)C3)cn1 | 0.5 | nt
COC(=O)c1cc2c(=O)n3ccccc3nc2n(CCCO)c1=N | 1.8 | -0.153
CCn1c(O)c(C=Nc2cccc(OC)c2)c(=O)[nH]c1=S | 2.0 | -0.783
O=C(Nc1nnc(-c2ccccc2)o1)c1ccccc1 | -0.3 | 0.643
Cc1ccc(O)c(C(=O)c2cnc3[nH][nH]c(=O)c3c2)c1 | 6.9 | nt
COCCN(Cc1ccccc1)C(=O)C1CC(=O)N(c2cc(C)ccc2OC)C1 (stereo not given) | 1.6 | nt
COc1cc(-c2noc(CCCC(=O)Nc3ccccc3C(F)(F)F)n2)cc(OC)c1OC | 1.7 | 0.381
N#Cc1cc2c(=O)n3ccccc3nc2n(C2CCCC2)c1=N | -6.6 | nt
O=C(Nc1ccccc1C(=O)NCCN1CCOCC1)C1=CSCCO1 | -0.3 | -1.51
CNc1c(NC(=O)CC(=O)OC)c(=O)oc2ccccc12 | 0.3 | 0.285
CC1CCc2cc(F)ccc2N1C(=O)CN1C(=O)c2ccccc2C1=O (stereo not given) | 2.7 | nt
C/C(=N/NC(=O)c1sc(NS(=O)(=O)c2ccc(C)cc2)nc1C)c1sc(N)nc1C | 0.4 | 0.0425
CC(=O)OC1CCC2C3CCc4cc(O)ccc4C3CCC12C (stereo not given) | 0.1 | -0.579&-0.693
CCOC(=O)c1cc(-c2csc(Nc3ccccc3Cl)n2)on1 | 1.8 | nt
CCN1C(=O)NC(c2ccccc2)C1=O (stereo not given) | -1.7 | 0.643
CCc1ccc(NC(=O)c2cnn3c(C(F)F)cc(C)nc23)cc1 | -1.3 | -0.687
N#CCn1cc(/C=C2\C(=O)NC(=O)N(c3cccc(F)c3)C2=O)c2ccccc21 | -0.2 | nt
C=CCc1c(C)c2ccc(OC(C)=O)cc2oc1=O | -1.3 | 1.01
Cc1cc(=O)[nH]c(S)c1C#N | 2.4 | nt
C=CCNC(=O)c1cc(=O)c2ccccc2o1 | 4.8 | nt
CCOC(=O)n1cc(C(=O)c2ccccc2O)cn1 | 1.3 | nt
CCc1cc2c(=O)n(Cc3ccco3)c(SCC(=O)Nc3ccc(F)cc3F)nc2s1 | -0.4 | nt
CCc1cc(=O)oc2c(C)c3c(cc12)CN(Cc1ccco1)CO3 | -0.2 | 0.164
COCC(C)NCc1cc(F)ccc1F (stereo not given) | -1.5 | 0.249
O=C(NCCCn1ccnc1)c1ccc(CN2CCc3ccccc3C2)cc1 | -2.7 | 0.178
NS(=O)(=O)c1ccc2c(c1)CCN2 | 0.4 | nt
O=C(O)c1c2c(nc3ccccc13)Cc1ccccc1-2 | 2.8 | nt
O=C(NCc1ccc(F)cc1)c1ccc(O)cc1 | -1.2 | nt
Cc1c(/C=C2/C(=O)Nc3ccc(Cl)cc32)cc(C#N)n1C | 13.2 | nt

Grouped by structure: the entries above with an aryl methoxy group
SMILES | BasE inh | LANA-nucl inh
COc1ccc(-c2cc(C)no2)cc1S(=O)(=O)N1CC(=O)Nc2ccccc21 | -5.6 | nt
COc1cc(-c2nnc(CN3C(=O)C4CC=CCC4C3=O)o2)cc(OC)c1OC (stereo not given) | -1.5 | nt
COc1cc2nc(C3CCC3)n(NC(=O)c3ccco3)c(=O)c2cc1OC | -0.7 | -0.507
CCn1c(O)c(C=Nc2cccc(OC)c2)c(=O)[nH]c1=S | 2.0 | -0.783
COCCN(Cc1ccccc1)C(=O)C1CC(=O)N(c2cc(C)ccc2OC)C1 (stereo not given) | 1.6 | nt
COc1cc(-c2noc(CCCC(=O)Nc3ccccc3C(F)(F)F)n2)cc(OC)c1OC | 1.7 | 0.381

(continued)
SMILES | BasE inh | LANA-nucl inh
O=C1CSC(=S)N1/N=C/c1cccnc1 | 1.0 | nt
CC(C)(C)OC(=O)CSc1nc2ccccc2c(=O)[nH]1 | -6.5 | nt
Cc1oc(C(O)C(O)C(O)CO)cc1C(=O)O (stereo not given) | 0.6 | nt
N#CC1=C(O)CCCn2c1nc1ccccc1c2=O | -1.9 | nt
Nc1cc(=O)[nH]c2n[nH]c(=S)n12 | 1.4 | -0.0655
CCn1c(SCC(=O)OCc2c(C(=O)OC)sc(N)c2C(=O)OC)nnc1-c1cccs1 | -0.5 | nt
CCCCc1cc2ccccc2c(OCCN(C)C)n1 | -1.3 | 0.303
NC(=O)c1ccccc1OCc1ccc(F)cc1Cl | -0.8 | nt
CN(C)S(=O)(=O)c1ccc(OCC(=O)O)cc1 | -1.1 | 0.223
Nc1nnc(SCc2nnc(-c3cccs3)o2)s1 | 4.2 | nt
CCc1ccc(N2C(=O)Nc3ccccc3S2(=O)=O)cc1 | -1.2 | -0.494
CCC1C/C(=C/c2ccco2)C(=O)/C(=C/c2ccco2)C1 (stereo not given) | -7.2 | 1.12
Cc1cc(C)c(NC(=O)COC(=O)c2nccnc2N)c(Cl)c1 | 2.0 | nt
O=C(O)c1ccc(-c2ccc(CO)o2)cc1 | 0.2 | -0.149
NC(Cc1ccc2nonc2c1)C(=O)O (stereo not given) | -2.2 | -0.586
CCOC(=O)C1CCN(c2cc3c(cc2NC(=O)c2ccccc2)n(C)c(=O)n3C)CC1 | -0.8 | 0.328
O=C(Cn1ncc(Cl)c(Cl)c1=O)NCCc1ccc(F)cc1 | 3.0 | nt
COc1cccc(/C=[N+](/C)[O-])c1OCc1ccccc1 | nt | -1.01
O=C(NCCO)C(c1ccccc1)c1ccccc1 | -0.1 | -0.432
O=C(Nc1ccccc1)Nc1ccc2ncccc2c1 | 13.4 | 0.251
COc1ccc(CNC(=O)COC(=O)C2COc3ccccc3O2)cc1 (stereo not given) | 3.4 | nt
Cc1cccc(N(CC(=O)Nc2c(C)n(C)n(-c3ccccc3)c2=O)S(C)(=O)=O)c1 | 4.3 | -0.82
CS(=O)(=O)NCCSCc1ccccc1 | 2.7 | -0.404
CCNc1nc(OCC)nc(N2CCC(Cc3ccccc3)CC2)n1 | 0.4 | nt
CC1=C(C(=O)OC(C)C)C(c2ccccc2)NC(=S)N1 (stereo not given) | 2.7 | nt
[O-]/[N+](=C\c1cccs1)c1ccc(Cl)cc1 | -0.4 | 0.392
Oc1ccccc1/C=N/n1c2ccccc2c2ccccc21 | 2.7 | nt
NC(=O)c1ccc2nc(N)sc2c1 | -0.3 | 0.441
Cc1ccc2c(c1)c1c3n2CCN=C3CCC1 | -6.0 | 0.71
CCCC12CN3CC(CCC)(CN(C1)C3C(O)C(O)C(O)C(O)CO)C2=O (stereo not given) | 0.9 | -0.136
CC1=C(C(=O)OC(C)C)C(c2ccccc2F)C(C#N)=C(N)O1 (stereo not given) | -3.0 | -0.174
COc1ccccc1Oc1ccc2c(c1)C(=O)N(c1cccc(O)c1)C2=O | 0.4 | 1.16
O=S(=O)(Cc1cccc(C(F)(F)F)c1)Cc1cccc(C(F)(F)F)c1 | 1.8 | nt
O=C(c1cccs1)C(NS(=O)(=O)c1ccccc1)NS(=O)(=O)c1ccccc1 | 1.8 | -1.79
COc1ccc2c3c1O[C@H]1C[C@@H](O)C=C[C@@]31CCN(C)C2 | -0.9&-1.4 | -0.24&-0.113&0.223&-0.478&0.049
COc1ccc(N2C(=O)/C(=C\c3ccco3)N=C2SCC(=O)c2c(N)n(C)c(=O)n(C)c2=O)cc1Cl | 2.9 | nt
O=C(O)/C=C\C(=O)Nc1nn[nH]n1 | -0.3 | -1.08

Single records (already shown). Order of screens: BasE inh | LANA-nucl inh
COc1ccc(CNC(=O)COC(=O)C2COc3ccccc3O2)cc1 (stereo not given) is listed with 3.4 | nt
C=CCNC(=O)c1cc(=O)c2ccccc2o1 is listed with 4.8 | nt
